Assay outcomes (PubChem BioAssay)
AmpC inh no det – inhibitors of E. coli AmpC beta-lactamase without detergent | P00811 | AmpC nitrocefin hydrolysis, absorbance 480 nm, no detergent; potencies from a single point are estimates | Potency, µM (highest dose often 28.7 µM), without a hit: at the top dose activity change, negative = inhibition | actives 1.8% (n = 71,000); active = falling curve, for most hits resting on a single point; inconclusive = weak or doubtful change; inactive = flat or rising curve; further: % of control where 0% means no effect; about half of the hits show no inhibition at the top dose; a quarter of the inactives give rising signals
Target sequence (P00811 whole entry, looked up): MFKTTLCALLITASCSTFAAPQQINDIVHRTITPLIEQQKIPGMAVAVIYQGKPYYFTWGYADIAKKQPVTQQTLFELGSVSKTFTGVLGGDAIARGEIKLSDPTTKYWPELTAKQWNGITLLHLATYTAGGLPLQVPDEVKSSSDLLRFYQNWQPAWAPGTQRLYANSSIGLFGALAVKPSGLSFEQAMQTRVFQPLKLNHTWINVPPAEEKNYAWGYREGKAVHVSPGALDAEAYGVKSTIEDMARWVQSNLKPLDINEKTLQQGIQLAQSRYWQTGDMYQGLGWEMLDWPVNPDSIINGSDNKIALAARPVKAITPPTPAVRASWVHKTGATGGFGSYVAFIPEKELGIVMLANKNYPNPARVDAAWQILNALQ
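AmpC, 20 mM phosphate pH 7.0; 15 min cpd preinc, RT; start with nitrocefin (800 uM stock); A480 kinetic read, 20 s intervals, 4 min. No-enzyme wells = negative control.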
An asterisk follows results filed as active; u = inconclusive; & = joins results of further samples. Potency means the concentration at half of the fitted maximal effect.

Start of the data: the first 6 records, to show the layout:
SMILES | AmpC inh no det
CCOC(=O)CCC(=O)NCc1ccc2c(c1)cc(C)n2C | 19%
CCC(=O)c1ccc(OCC(O)CN(C)C2CCCCC2)cc1 (stereo unspecified) | -9%
Cc1nc(NCc2ccccc2)c2nc(-c3ccccc3)n(C(C)CN(C)C)c2n1 (stereo unspecified) | 80%
O=C(CCN1CCCCCC1)Nc1cccc(Cl)c1 | -5%
CCOC(=O)N1CCC(N2Cc3cccc(C(=O)NC(C)c4ccc5c(c4)OCCO5)c3C2=O)CC1 (stereo unspecified) | 95%
CC(=NCc1ccc(F)cc1)c1c(O)n(C)c(=O)n(C)c1=O | 22%

Main list, from the first entry:
SMILES | AmpC inh no det
CCOC(=O)CCC(=O)NCc1ccc2c(c1)cc(C)n2C | 19%
CCC(=O)c1ccc(OCC(O)CN(C)C2CCCCC2)cc1 (stereo unspecified) | -9%
Cc1nc(NCc2ccccc2)c2nc(-c3ccccc3)n(C(C)CN(C)C)c2n1 (stereo unspecified) | 80%
O=C(CCN1CCCCCC1)Nc1cccc(Cl)c1 | -5%
CCOC(=O)N1CCC(N2Cc3cccc(C(=O)NC(C)c4ccc5c(c4)OCCO5)c3C2=O)CC1 (stereo unspecified) | 95%
CC(=NCc1ccc(F)cc1)c1c(O)n(C)c(=O)n(C)c1=O | 22%
COc1cc(SC)ccc1C(=O)NCC1CCCO1 (stereo unspecified) | 10%
Cc1ccc2c(c1)nnn2C1CCN(CC(=O)Nc2ccc3c(c2)OCCO3)CC1 | 57%
CCN1C(=O)/C(=C2\SC(N3CCCCC3)=NC2=O)c2ccccc21 | 99%
Cc1cccc(C)c1NC(=O)c1ccc(-n2cnnn2)cc1 | -4%
CCOC(=O)CNC(=O)C(Cc1ccccc1)NS(=O)(=O)c1cccs1 (stereo unspecified) | u
COc1ccc(-c2nc3cnc(OC)nc3n(C3CC3)c2=O)cc1 | 27%
Cc1cc(C2(c3cc(C)c(O)cc3C)OS(=O)(=O)c3ccccc32)c(C)cc1O | -8%
Cc1cc(C)nc(N2C(=O)CC(C(C)c3ccccc3)C2=O)n1 (stereo unspecified) | 20%
CCS(=O)(=O)N1CCC(c2nc(-c3ccc(C(F)(F)F)cc3)no2)CC1 | 43%
O=C(c1c(F)c(F)c(F)c(F)c1F)N1CCc2ccccc21 | -7%
CC1CCCCN1C(=O)C1CC(c2ccc(F)cc2)=NO1 (stereo unspecified) | 4%
CCCc1cc2c(n1CCc1ccc(Cl)cc1)C(C)C1CN(C(=O)c3ccccc3)C(C)(C(=O)OC)C21 (stereo unspecified) | 114%
Cn1cnnc1SCc1ccc(-c2ccc(Br)cc2)o1 | 34%
c1ccc2c(c1)C(=Nn1cnnc1)c1ccccc1-2 | -6%
c1ccc(C2CC(c3ccccc3)n3ncnc3N2)cc1 (stereo unspecified) | 16%
CN(C)CCOC(=O)CCc1ccccc1 | 0%
Cc1ccc(S(=O)(=O)N(C)Cc2nc(-c3ccc(Br)cc3)no2)cc1 | 3%
CCN(CC)CC(=O)Nc1ccc(-c2nc3cc(NC(=O)CN(CC)CC)ccc3o2)cc1 | 31%
CNc1ncncc1-c1ccccc1C | 13%
CC(=O)NC1C(=O)SC1(C)C (stereo unspecified) | -21%
O=C1c2[nH]nc(-c3ccccc3O)c2C(c2ccccc2F)N1Cc1ccco1 (stereo unspecified) | 24%
CCOC(=O)N1CCC(NC(=O)C2CCCN(S(=O)(=O)c3cccc4nsnc34)C2)CC1 (stereo unspecified) | 37%
CCNc1nc(NCc2ccccc2)nc(Oc2ccc(=O)[nH]n2)n1 | 0%
CC(=O)c1cc2c(cc1NC(=O)CCCC(=O)O)OCO2 | -5%
CCC(=O)OCCn1c(Br)nc2c1c(=O)[nH]c(=O)n2C | 5%
O=S(=O)(c1ccc(SCCO)nc1)N1CCCC1 | 3%
CCC(=O)N1CCN(c2nc(-c3ccccc3)c3c(c2C#N)CCCC3)CC1 | 156%
CC(=O)N1CCC2(CC1)CC(=O)c1cc(OCC(=O)NCc3ccco3)ccc1O2 | 28%
NC=O | -10%
O=c1cc(CSc2ccc(Cl)cc2)nc(N2CCCCC2)[nH]1 | 20%
Cc1nnc(NC(=O)CCCN2C(=O)c3ccccc3C2=O)s1 | -7%
CS(=O)(=O)N(CC(=O)NCc1ccco1)c1ccc2c(c1)OCO2 | -13%
CCNC(=O)CC1C(=O)N(c2ccccc2)C(=O)N1CCC(C)C (stereo unspecified) | 2%
CC(C)C(=O)Nc1cccc(C(=O)Nc2nncs2)c1 | -6%

Exported as tab-separated lines: 3 of the compounds above.
Molecule	AmpC inh no det
O=C1c2[nH]nc(-c3ccccc3O)c2C(c2ccccc2F)N1Cc1ccco1 (stereo unspecified)	24%
NC=O	-10%
CCOC(=O)N1CCC(NC(=O)C2CCCN(S(=O)(=O)c3cccc4nsnc34)C2)CC1 (stereo unspecified)	37%

(continued)
SMILES | AmpC inh no det
CCCCn1c(N)c(N(CCC(C)C)C(=O)CSc2nnc3ccccn23)c(=O)[nH]c1=O | 52%
CN1C(=O)SC(Nc2ccc(F)cc2)C1=O (stereo unspecified) | 6%
O=C(c1ccco1)n1nc(-c2ccccc2)nc1NCc1ccco1 | 0%
CCN(CCNC(=O)C1CCN(S(=O)(=O)CC)CC1)c1ccccc1 | 9%
CC12C(=O)N(c3cccc4cccnc34)C(=O)C1C1C=CC2C1 (stereo unspecified) | 18%
O=C(NC1CC1)C1CCC(=O)N1C1CCCC1 (stereo unspecified) | -5%
CCCC(=O)N1CCN(c2ccc(NC(=O)c3cc4ccccc4o3)cc2)CC1 | 94%
CSc1ccc(C(=S)N2CCN(CCO)CC2)cc1 | 15%
O=C(N1CCOCC1)N1CCN(CC(O)COc2ccc3ccccc3c2)CC1 (stereo unspecified) | 83%
CN(C)CCN1C(=O)C(=O)/C(=C(/O)c2ccc(S(=O)(=O)N3CCOCC3)cc2)C1c1ccccc1 (stereo unspecified) | 1%
CC(=O)Nc1ccc(OC(F)(F)C(F)C(F)(F)F)c(NC(C)=O)c1 (stereo unspecified) | 8%
COCCOC(=O)C1=C(C)N=C2SCCC(=O)N2C1c1ccc(C(=O)OC)cc1 (stereo unspecified) | 71%
COc1cc(CNc2nc3ccccc3[nH]2)cc(OC)c1OC | -18%
O=C(CSc1nnc(C2CCCCC2)o1)N1CCCCC1 | 12%
CCCC(=O)N1CCN(c2ccc(NC(=O)c3cc4ccccc4o3)cc2Cl)CC1 | 50%
CN(C)c1ncc2nc(-c3ccc(F)cc3)c(=O)n(C3CC3)c2n1 | 13%
COc1ccc(CCNC(=O)CSc2nc(N)c(C#N)c(-c3cccs3)c2C#N)cc1OC | 53%
CCC(C)Nc1nc2c(c(=O)[nH]c(=O)n2C)n1CCC(C)C (stereo unspecified) | -3%
CCCCCCNC(=O)C(C#N)c1nc2ccccc2nc1N1CCOCC1 (stereo unspecified) | 26%
Cc1ccccc1OCCCC(=O)Nc1nccs1 | -17%

Copied from the list:
AmpC inh no det result of O=C(c1ccco1)n1nc(-c2ccccc2)nc1NCc1ccco1 = 0%
AmpC inh no det result of CCC(C)Nc1nc2c(c(=O)[nH]c(=O)n2C)n1CCC(C)C (stereo unspecified) = -3%
AmpC inh no det result of CCCC(=O)N1CCN(c2ccc(NC(=O)c3cc4ccccc4o3)cc2)CC1 = 94%
AmpC inh no det result of CCCC(=O)N1CCN(c2ccc(NC(=O)c3cc4ccccc4o3)cc2Cl)CC1 = 50%
AmpC inh no det result of O=C(N1CCOCC1)N1CCN(CC(O)COc2ccc3ccccc3c2)CC1 (stereo unspecified) = 83%

Going on with the list.
SMILES | AmpC inh no det
Cc1cccc(NC(=O)C2CCCN(S(=O)(=O)c3c(C)nn(C)c3C)C2)n1 (stereo unspecified) | 22%
Nn1c(SCC(=O)NC(=O)NCc2ccccc2)nnc1C1CC1 | -9%
O=C(O)CCC(=O)N1CCc2cc(S(=O)(=O)Nc3ccc4c(c3)OCCO4)ccc21 | 7%
Cc1cccn2cc(-c3ccc(S(=O)(=O)N4CCOCC4)cc3)nc12 | 43%
O=C(NCc1ccco1)c1sc2cccc(F)c2c1Cl | u
CC(C)C[C@@H](CC(=O)N[C@H](CC(=O)N[C@@H]1CCNC[C@H]1C(=O)N[C@H](CC(=O)N[C@@H](CCC(=O)O)CC(=O)O)CC(C)C)C(C)C)NC(=O)[C@@H]1CCCC[C@H]1N | 122%
CCOC(=O)c1c(-c2ccc(C)o2)csc1NC(=O)CSc1nnc(C)s1 | 60%
O=C(N1CCOCC1)N(Cc1cccs1)C1CCCC1 | 9%
CCOC(=O)c1csc(NC(=O)c2ccc(OC)c(OC)c2)n1 | 5%
O=C(NCc1ccco1)c1cc2nc(-c3cccs3)cc(C(F)(F)F)n2n1 | 22%
Cc1c(C(N)=O)sc2nc(-c3ccccc3)cn12 | 10%
O=C(COc1ccc(Cl)cc1Cl)N(Cc1ccco1)C1CCS(=O)(=O)C1 (stereo unspecified) | 55%
COCCN(CC(=O)NCc1ccccc1)C(=O)CCC(=O)Nc1nccs1 | -6%
CNC(=O)c1c(NC(=O)c2ccc(S(=O)(=O)N3CCOCC3)cc2)sc2c1CCC2 | 13%
NC(=O)CSc1nnnn1-c1ccc(OC(F)(F)F)cc1 | 14%
COc1ccc(CNS(=O)(=O)c2ccc(C3CNC(=O)C3)cc2)cc1 (stereo unspecified) | 14%
COc1nc(N)nc(N2CCOCC2)n1 | -4%
O=C(NCc1cccs1)c1ccccc1F | -2%
C[N+](C)(C)CC#CCN1CCCC1=O | 2%&6%
COc1ccccc1-c1cc(C(F)(F)F)nc(S(=O)(=O)CCCC(=O)N2CCOCC2)n1 | 83%
COc1cc(C)c(S(=O)(=O)N2CCCC2)cc1C | 10%
COC(=O)c1cc(CC(=O)c2ccc(O)cc2O)c(C)o1 | -15%
O=C(O)CCc1ccc(-c2ccc(F)cc2)n1CC(=O)O | -11%
Cc1cc(C)c(S(=O)(=O)N(CC(=O)NCc2cccnc2)C2CCCCC2)c(C)c1 | 64%
CC1(C)Cc2ccccc2-c2nc(NCCCO)n(-c3ccccc3)c(=O)c21 | 127%
COc1ccccc1N1CCN(Cc2nc(N)nc(Nc3ccccc3)n2)CC1 | 50%
CCOC(=O)C1CCN(C(=O)N(C)C)CC1 | -4%
Cc1nnc(SCCn2c(N3CC(C)CC(C)C3)nc3c2c(=O)[nH]c(=O)n3C)s1 (stereo unspecified) | 33%
Cn1c(=O)c(-c2ccc(F)cc2)nc2cnc(Nc3ccccc3)nc21 | -11%
Cc1ccc(Cn2nnnc2CN2CCC(n3nnc4ccccc43)CC2)cc1 | 69%
NC1(C(=O)O)C[C@H](C(=O)O)[C@H](C(=O)O)C1 (stereo partly specified) | 36%
CCOc1ccc(-c2nnn(CC(=O)NCc3cccs3)n2)cc1 | -3%
O=C1C=C(NCCO)C(=O)c2cnccc21 | 8%
CCOC(=O)CSC1=C(C#N)C(c2ccco2)C(C(=O)OCc2ccccc2)=C(C)N1 (stereo unspecified) | -10%
CCCCCCNC(=O)CC(NS(=O)(=O)c1ccc(NC(C)=O)cc1)C(C)C (stereo unspecified) | 1%
CCCCC(NS(=O)(=O)c1ccc(OC)cc1)C(=O)O (stereo unspecified) | -7%
CC(=O)Nc1nonc1-c1ccccc1 | -3%
CN(CC(=O)NC(=O)NCc1ccco1)Cc1nc2ccccc2c(=O)[nH]1 | 6%
Cc1ccc(C(=O)CC2(O)C(=O)N(Cc3ccccc3)c3ccccc32)o1 (stereo unspecified) | 13%
CCOC(=O)N1CCN(c2cc3nccnc3cc2F)CC1 | -6%
CCC(=O)Nc1ccc(C(=O)n2nc(C)cc2C)cc1 | -6%
O=S(=O)(c1ccc(OCc2nc3ccccc3s2)c(Cl)c1)N1CCOCC1 | 88%
Cn1c(Nn2cnnc2)nc2ccccc21 | -5%
COc1ccc(C(=O)Nc2ccc(Cl)cc2C(=O)NCc2ccco2)cc1OC | 62%
COCCn1c(=O)c(-c2cccc(C#N)c2)nc2cnc(N(C)C)nc21 | 9%
COc1ccc2c(c1)CC1(CN2C)C(=O)NC(=O)N(c2ccc(F)cc2)C1=O (stereo unspecified) | 6%
CO[C@@H]1CC=C2CCN3CCC4=C(CC(=O)OC4)[C@]23C1 | -8%
COc1ncnc2c1N=C1CC(C)(C)CC(N)=C1S2 | -11%
COCCCNC(=O)CCCOc1ccccc1 | 2%
COc1ccc2c(c1)C1CC(C)(NC(=O)C1C(=O)c1ccccc1)O2 (stereo unspecified) | 2%
Cc1ccc2nc(NC3=NCN(Cc4ccccc4)CN3)nc(C)c2c1 | -6%
O=C(CCC1N=C2c3ccccc3N=C(SCc3ccc(F)cc3)N2C1=O)NCc1ccco1 (stereo unspecified) | 94%
COc1ccc(S(=O)(=O)CCC(=O)N2c3ccccc3CC2C)cc1 (stereo unspecified) | 28%
COc1ccc(OC)c(S(=O)(=O)N2CCC(C(=O)N3CCN(Cc4ccccc4)CC3)CC2)c1 | 133%
O=[N+]([O-])c1ccccc1CCO | 1%
Cc1cccc(-n2c(SCC(N)=O)nnc2-c2ccccn2)c1C | 12%
Cc1cc(N2CCN(S(=O)(=O)c3ccc4c(c3)OCCO4)CC2)n2ncnc2n1 | 63%
CCOC(=O)c1c2n(c3ccc(O)cc13)CCCCC2 | -13%
COc1ccc(CNc2nc(SC)n[nH]2)cc1OC | -1%
Cc1cnc(NC(=O)CSc2nnc(-c3ccncc3)n2C2CCCCC2)s1 | 91%

Two neighbouring entries from above:
SMILES | AmpC inh no det
CCC(=O)Nc1ccc(C(=O)n2nc(C)cc2C)cc1 | -6%
O=S(=O)(c1ccc(OCc2nc3ccccc3s2)c(Cl)c1)N1CCOCC1 | 88%

(cont.)
SMILES | AmpC inh no det
COc1ccccc1CN1CC2(CCN(C(=O)c3cccc(F)c3)CC2)C1 | 5%
CCOC(=O)c1c(NC(=O)C(F)(OC)C(F)(F)F)sc(C(=O)N2CCCCC2)c1C (stereo unspecified) | 112%
Cc1ccc(S(=O)(=O)NCC(=O)N(CC(=O)NCc2ccco2)Cc2ccc3c(c2)OCO3)cc1 | -14%
COc1ncc2nc(-c3ccccc3)c(=O)n(C[C@H]3CCCO3)c2n1 | 32%
CC(C)CCn1cnc2c(cnn2-c2ccc(Cl)cc2)c1=O | 2%

A portion of the library. The share of hits here may be higher or lower than overall.
